Rango dissoc inh: inhibitors of RanGTP-induced Rango-importin beta complex dissociation; O95149+P62826; Biochemical FRET Rango-importin beta, RanGTP-induced dissociation; Potency, µM (doses to about 46.1 µM), for the others: at the highest dose activity change, negative = inhibition; actives 0.071% (n = 340,000); AID 540253; active means falling FRET ratio curve, often poorly fitted, with flat reads before Ran was added; inconclusive means other falling curves, or compound fluorescence or quenching; inactive means flat or rising ratio curve;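 note: potency is the fitted concentration of half-maximal effect; % of control where 0% means no effect; nearly all actives have a fitted effect of over 45% in size; -100% = wells without RanGTP and RCC1; the record marks most hits as doubtful in a second field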
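Compounds sat 5 min at room temperature with 0.1 uM Rango biosensor plus 0.25 uM importin beta, then FRET pre-read. RanGTP-RCC1 (0.6 uM Ran, 2mM GTP, 0.2 uM RCC1) added for 45 min, and the CFP/YFP post-read measured blocked complex dissociation.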
Rango-impB inh: Rango-importin beta binding inhibition | Q14974 | Rango CFP/YFP FRET sensor + importin beta, 45 min | Potency, µM (doses to about 92.2 µM), inactives show top-dose inhibition of complex formation | actives 0.031% (n = 340,000) | AID 540263; active = rising FRET ratio curve, often small or poorly fitted; inconclusive = mostly compound fluorescence or quenching in the first reads; inactive = flat curves in all reads;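 note: potency is the fitted concentration of half-maximal effect; 0% = DMSO wells and 100% = buffer wells lacking importin beta; nearly all actives have a fitted effect of over 15% in size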
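Inhibition scored from the CFP 486 nm/YFP 530 nm FRET ratio 45 min after adding 0.125 microM importin beta to 50 nM Rango biosensor preincubated 5 min with compound (room temperature, PBS with DTT, Tween-20, BSA). No-importin wells as positive control.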
GLA inh pH 4.5: alpha-galactosidase A (human) inhibition, pH 4.5; purified enzyme, 4-MU-alpha-Gal fluorescence, pH 4.5; activity change, negative = inhibition, % at 105 µM; 230,000 tested, under 10 active; AID 1467; inconclusive = small, poorly fitted or top-dose-only inhibition, or a rising curve; inactive = flat fitted curve, though single readings scatter; no compound was filed as active;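 note: 0% = full activity with enzyme and -100% = basal without enzyme; dose as in the result columns while the protocol names 77 µM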
Target sequence (P06280 whole entry, looked up): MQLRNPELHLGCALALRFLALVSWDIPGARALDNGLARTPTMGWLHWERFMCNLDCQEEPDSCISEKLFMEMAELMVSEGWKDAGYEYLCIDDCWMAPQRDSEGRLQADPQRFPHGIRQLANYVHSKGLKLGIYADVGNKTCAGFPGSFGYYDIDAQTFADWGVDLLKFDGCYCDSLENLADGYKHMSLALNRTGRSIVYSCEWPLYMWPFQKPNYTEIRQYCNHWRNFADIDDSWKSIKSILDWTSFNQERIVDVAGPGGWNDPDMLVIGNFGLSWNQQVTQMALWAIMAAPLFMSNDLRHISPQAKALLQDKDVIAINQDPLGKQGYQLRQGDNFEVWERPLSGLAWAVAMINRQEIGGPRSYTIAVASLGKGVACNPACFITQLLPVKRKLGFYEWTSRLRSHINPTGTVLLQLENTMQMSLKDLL
miR-21 FLuc: miR-21 reporter, rising signal; HeLa miR-21 FLuc reporter, luciferase, 48 h; AID 2288; 340,000 tested, under 10 active; Potency, µM (titrated, usually from 38.3 µM), inactives show at the highest dose reporter change, positive = more light; active = well fitted rising curve with a large enough effect; inconclusive = small, poorly fitted or top-dose-only effect; inactive = no such curve, though single readings can be large or run the other way;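 note: % of control where 0% means no effect; miR-21 action dims this reporter so a rising signal means less miR-21 action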
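HeLa miR-21-FLuc reporter line, endogenous miR-21; 2000 cells/well in DMEM/10% FBS; compound titration up to ~40uM final, 48 h, 37 degree Celsius; luciferase detection reagent, 15 min lysis, CCD luminescence.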
The depositor's hits bear a star; u = inconclusive; x = not tested or not shown; & = joins results of further samples. Some of the compounds tested, so the mix of outcomes need not match the whole.

SMILES	Rango dissoc inh	Rango-impB inh	GLA inh pH 4.5	miR-21 FLuc
COc1ccccc1/C=C(\NC(=O)c1ccc(OC)c(OC)c1)C(=O)Nc1cccc([N+](=O)[O-])c1	-17%	u	-4	-9%
COc1ccc(CNC(=O)[C@H](C)NC(=O)N2CCn3c2nc2ccccc23)cc1	-2%	2.9%	x	2%
Cc1cc2ccccn2c1C(=S)NC(=O)c1ccccc1	-13%	-4.2%	-3	-19%
c1ccc2c(c1)nc(Nc1ccc(N3CCCCC3)cc1)c1nncn12	16%	-1.1%	-13	-3%
Cc1[nH]c2ccccc2c1C(=O)COC(=O)Cn1c(C)nc2ccccc21	-8%	-3.2%	-7	30%
CCCCP(=O)(CCCC)CCP(=O)(c1ccccc1)c1ccccc1	0%	-0.8%	-3	2%
O=C(N/N=C1/CC(c2ccccc2)Oc2ccccc21)C1CC1 (stereo unspecified)	1%	2.0%	3	-3%
Cc1ccc([N+](=O)[O-])cc1N(CC(=O)Nc1ccc(S(=O)(=O)Nc2cccc(C(F)(F)F)c2)cc1)S(C)(=O)=O	2%	-0.4%	-7	u
Cc1ccc(-n2c(-c3ccncc3)nnc2-c2ccco2)cc1	-4%	2.4%	5	1%
CCOC(=O)c1c(C)[nH]c(C)c1C(=O)CSc1nnnn1-c1ccccc1	-7%	0.5%	-1	-7%
CC(C)CN(C(=O)COC(=O)Cc1n[nH]c(=O)c2ccccc12)C1CCS(=O)(=O)C1 (stereo unspecified)	0%	1.0%	7	-2%
COc1cc2c(cc1OC)-c1cc3ccc(OC)c(OC)c3c[n+]1CC2	-13%	0.0%	1&5	x
CCOC1=C/C(=C/c2c(N)n3nc(-c4ccccc4)sc3nc2=O)C=CC1=O	u	u	-1	-8%
CNc1nc(-c2ccc3c(c2)CCN3C(=O)c2ccccc2C)cs1	10%	0.8%	-4	-69%
Cc1ccc(C)c(C(=O)CCC(=O)NNC(=O)c2cccs2)c1	-6%	-0.4%	x	x
CCc1ccc(OCc2ccc(C(=O)O)o2)cc1	-19%	9.2%	x	-50%
CCc1nnc(NC(=O)c2cccs2)s1	0%	2.0%	4	-38%
CCOC(=O)c1c(/N=C/C2=C(O)CCCC2=O)sc(C)c1C	u	u	-14	2%
CCOC(=O)C1CCCN(S(=O)(=O)c2ccc(Cl)nc2)C1 (stereo unspecified)	29%	-5.5%	x	x
Cc1ccc2nc(SCC(=O)Nc3cc([N+](=O)[O-])ccc3F)[nH]c2c1	-6%	-0.5%	6	10%
CCC1Oc2ccccc2C(=O)N(CC(=O)c2ccc3c(c2)OCCO3)C1=O (stereo unspecified)	-12%	-2.9%	x	-21%
Cc1cc(N2CCN(C(=O)c3ccco3)CC2)n2nc(C)c(-c3ccc(Cl)cc3)c2n1	x	x	5	-2%
COc1ccc(NC(=O)C2CCC(CNS(=O)(=O)c3cccs3)CC2)cc1 (stereo unspecified)	7%	-0.6%	-7	3%
O=C(/C(C=Nc1cc2c(oc1=O)CCCC2=O)=C(\O)c1ccccc1)c1ccccc1	7%	-1.6%	1	-47%
CC(Oc1ccc(Cl)cc1Cl)C(=O)OCn1nnc2ccccc2c1=O (stereo unspecified)	3%	0.2%	5	-3%
CCN(CCO)Cc1csc2cc(C)ccc12	u	0.8%	0	0%
CCCCOC(=O)c1ccc(NC(=O)C(=O)NCc2ccccn2)cc1	8%	1.5%	-5	2%
O=C(COC(=O)c1ccc(O)cc1)Nc1ccccc1-c1ccccc1	-9%	5.6%	-5	3%
CCCCC(=O)NC1=C(C(=O)OC)SCC1	1%	0.7%	6	-1%
CCC(C)(C)NC(=O)CN(C(=O)c1csnn1)c1cccc2c1CCCC2	3%	3.3%	-1	0%
COc1cccc(OCc2cc(/C=N/Nc3ccc(C(=O)O)cc3)ccc2OC)c1	20%	-0.2%	-8	-46%
Cc1ccc(-c2cc(Cc3ccccc3)c(=O)[nH]n2)cc1	u	-1.4%	2	-14%
N#C/C(=C/c1ccc(-c2cccc([N+](=O)[O-])c2)o1)C(=O)Nc1nc(-c2cccs2)cs1	7%	-4.2%	x	x
CC(=O)c1sc(NC(=O)COc2c(C)cc(Cl)cc2C)nc1C	x	x	6	2%
CC(OC(=O)c1c[nH]c2ccccc12)C(=O)N1CCCC1 (stereo unspecified)	-13%	0.4%	x	x
O=C(Cc1ccc(Br)cc1)N1CCN(c2ccccn2)CC1	1%	1.7%	5	-38%
COc1ccc(-c2csc(NC(=O)CN3C(=O)CCC3=O)n2)cc1OC	-8%	1.8%	5	2%
O=c1c2ccccc2nc(/C=C/c2c[nH]c3ccccc23)n1CCO	u	u	-10	-30%
COc1ccc(C(C(=O)NCCC(C)C)N(CCCO)C(=O)c2snc(C(N)=O)c2N)cc1OC (stereo unspecified)	17%	-1.8%	x	3%
O=C(Nc1ccccc1N1CCOCC1)c1cc2ccccc2o1	7%	-0.6%	x	-7%
COc1cc(C(c2c(C(=O)O)[nH]c3ccccc23)c2c(C(=O)O)[nH]c3ccccc23)ccc1OCc1ccccc1	4%	-1.2%	x	1%
O=C(Nc1cccnc1)c1ccc(NS(=O)(=O)c2cccc([N+](=O)[O-])c2)cc1	-1%	-0.7%	4	-4%
COc1ccc(OC)c(NC(=O)COC(=O)COc2ccc(Nc3ccccc3)cc2)c1	26%	-2.2%	x	x
C=CCOc1c2ccc(C(=O)NCc3ccc(OC)cc3)cc2nn1C	2%	-1.5%	8	-21%
Cc1nc(S(=O)(=O)N2CCN(C3c4ccccc4-c4ccccc43)CC2)cn1C	0%	-1.5%	-3	-3%
COC(=O)C1CSC(C)(C)C(=O)N1 (stereo unspecified)	-2%	3.6%	5	-3%
O=C(COC(=O)C1COc2ccccc2O1)Nc1ccc(Cl)cc1 (stereo unspecified)	10%	8.7%	x	x
COc1ccc(C(=O)CC(=O)C(=O)Nc2cc(OC)ccc2OC)cc1	-1%	-0.1%	x	-2%
COc1cc(S(=O)(=O)N2CCCC3(CCCCC3)C2)ccc1-n1cnnn1	-13%	3.4%	-4	-8%
O=C(NNC(=O)c1ccco1)c1ccc(NS(=O)(=O)c2cccs2)cc1	-4%	-0.8%	x	x
Cc1ccc(C(=O)OCC(=O)NC2CCCC(C)C2C)cc1S(=O)(=O)N1CCCCC1 (stereo unspecified)	-1%	2.7%	x	x
CC(=O)NCCc1ccc(S(=O)(=O)Nc2ccc(C)c(S(=O)(=O)N3CCOCC3)c2)cc1	56%	-4.0%	x	-4%
CCOC(=O)c1ccc(S(=O)(=O)N2CCN(CC(=O)NC(=O)NC(C)(C)C)CC2)cc1	-10%	2.0%	-4	4%
COc1ccc(-c2nc(-c3ccc(NC(=O)c4ccncc4)cc3)no2)cc1OC	5%	-1.4%	-7	10%
CN(C)CCOC(=O)C1(c2ccccc2)CCCC1	-6%	2.3%	3	-3%
O=C1C(=NO)CCCc2ccccc21	-12%	2.4%	x	x
CCOc1cc(N2CCOCC2)c(OCC)cc1NC(=O)CN1C(=O)NC2(CCc3ccccc32)C1=O (stereo unspecified)	-1%	7.5%	-12	-2%
Cc1nc(Nc2ccccc2)sc1C(=O)Nc1ccccc1	0%	0.3%	-11	-49%
CC(=O)c1ccc(OCC(=O)OCC(=O)NCc2ccco2)cc1	0%	-0.7%	x	x
CCCOc1ccc(/C=N/NC(=O)CN2CCCCC2)cc1OCC	-10%	-5.2%	x	2%
(list continues)
SMILES	Rango dissoc inh	Rango-impB inh	GLA inh pH 4.5	miR-21 FLuc
O=c1[nH]c2ccccc2nc1-c1ccc(Cl)cc1	-20%	-0.3%	11	-44%
NNC(=O)C(=O)/C=C1\NC2(CCCC2)Cc2ccccc21	14%	1.1%	-15	-6%
CN(C(=O)CN1CCN(c2ccc([N+](=O)[O-])cn2)CC1)c1ccccc1	14%	1.1%	x	-1%
CCOc1ccccc1CN1CCNC(=O)C1CC(=O)NCCCn1cccn1 (stereo unspecified)	-8%	-0.6%	x	-2%
N#Cc1c(N2CCN(c3ccc([N+](=O)[O-])cc3)CC2)[n+](=O)c2ccc(Cl)cc2n1[O-]	u	u	x	x
O=C(NC1CC1)c1scc2c1OCCO2	-4%	1.4%	1	5%
S=C(NCc1ccc2c(c1)OCO2)Nc1ccc(-c2nc3ccccc3[nH]2)cc1	22%	0.9%	-1	-11%
Cc1ccc(CSC2=NCCN2C(=O)c2ccc([N+](=O)[O-])cc2)cc1	-15%	-1.8%	-1	16%
COc1ccc(/C=C/C(=O)NC2CC3CCC2C3)cc1 (stereo unspecified)	-9%	-3.3%	x	-46%
O=C(CSc1nnc(-c2ccc(O)cc2)o1)Nc1ccc2c(c1)OCCO2	7%	1.4%	1	-18%
CCc1nnc(NC(=O)/C=C/c2cccs2)s1	8%	-3.8%	5	-36%
Cc1cc(OCC(=O)OCC(=O)N2c3ccccc3NC(=O)C2(C)C)ccc1Cl	19%	1.4%	x	x

Four of these compounds, set out differently.
compound | Rango dissoc inh | Rango-impB inh | GLA inh pH 4.5 | miR-21 FLuc
CCc1nnc(NC(=O)/C=C/c2cccs2)s1 | 8% | -3.8% | 5 | -36%
S=C(NCc1ccc2c(c1)OCO2)Nc1ccc(-c2nc3ccccc3[nH]2)cc1 | 22% | 0.9% | -1 | -11%
O=c1[nH]c2ccccc2nc1-c1ccc(Cl)cc1 | -20% | -0.3% | 11 | -44%
NNC(=O)C(=O)/C=C1\NC2(CCCC2)Cc2ccccc21 | 14% | 1.1% | -15 | -6%

(listing goes on)
SMILES	Rango dissoc inh	Rango-impB inh	GLA inh pH 4.5	miR-21 FLuc
Nc1ccc(C(=O)OCC(=O)Nc2cccc(S(=O)(=O)NC3=NCCCCC3)c2)cc1[N+](=O)[O-]	-10%	0.5%	x	x
COc1ccc(C(C)=O)cc1CSc1ccc(S(=O)(=O)N2CCOCC2)cn1	-7%	6.4%	x	x
CC(C)CNC(=O)c1cccc(NC(=O)C(C)Oc2ccccc2)c1 (stereo unspecified)	14%	-0.2%	-4	-3%
COc1cccc(/C=C2\NC(=O)NC2=O)c1O	0%	-2.5%	x	-26%
Cc1ccc(-n2c(-c3ccco3)nc3c(cnn3-c3ccccc3C)c2=O)cc1	9%	0.5%	5	11%&-5%
O=C(CN1C(=O)c2ccccc2C1=O)Nc1ccc(Cl)cn1	3%	1.2%	4	1%
C=CCN(CC=C)C(=O)c1ccncc1	11%	7.8%	u	1%
CCOc1ccc2nc(NC(=O)CSc3nnc(-c4ccncc4)n3CC3CCCO3)sc2c1 (stereo unspecified)	-2%	-1.0%	2	-40%
C[C@]12c3[nH]c4cc(-c5ccco5)ccc4c3CCN1C(=O)[C@@H](CC(=O)NCCCn1ccnc1)C[C@@H]2C(=O)N1CCCCC1	3%	-1.4%	x	x
Cc1ccc(CNS(=O)(=O)c2c(C)[nH]c(C)c2C(=O)N2CCCCC2)o1	-3%	1.1%	x	-1%
CC(=O)c1ccc(NC(=O)C(C)N(C)CC(=O)Nc2ccc(Cl)cc2)cc1 (stereo unspecified)	1%	0.4%	-7	2%
COCC1CCN(C(=O)c2cc(COc3cncc(Cl)c3)on2)C1 (stereo unspecified)	21%	0.6%	x	3%
O=C(N/N=C/c1ccncc1)c1ccc(NS(=O)(=O)c2cccs2)cc1	1%	-0.8%	-5	-11%
CN1CCNC(=O)C1CC(=O)NCC1(c2ccccc2)CCCCC1 (stereo unspecified)	-1%	-1.2%	-9	-1%
CCOC(=O)c1cc(=O)n2c(nc3ccccc32)[nH]1	8%	-3.7%	x	x
CCOC(=O)N1CCC(N2C(=O)c3ccc(C(=O)Nc4ccc(F)cc4F)cc3C2=O)CC1	19%	1.2%	4	-8%
NC(=S)Nc1ccccc1Br	-8%	-0.8%	2	-6%
COc1ccc(CNC(=O)CCN2C(=O)c3ccccc3C2=O)cc1OC	-6%	-2.1%	x	0%

In the list so far, three have a COOH group:
SMILES	Rango dissoc inh	Rango-impB inh	GLA inh pH 4.5	miR-21 FLuc
CCc1ccc(OCc2ccc(C(=O)O)o2)cc1	-19%	9.2%	x	-50%
COc1cccc(OCc2cc(/C=N/Nc3ccc(C(=O)O)cc3)ccc2OC)c1	20%	-0.2%	-8	-46%
COc1cc(C(c2c(C(=O)O)[nH]c3ccccc23)c2c(C(=O)O)[nH]c3ccccc23)ccc1OCc1ccccc1	4%	-1.2%	x	1%

Compound activity from PubChem.
